Assay outcomes as filed in PubChem BioAssay.
VDR inh = Inhibitors of the vitamin D receptor (VDR): qHTS; Vitamin D3 receptor (Homo sapiens), P11473; VDR-SRC2-3 peptide fluorescence polarization, 2 h; Potency, µM, without a hit: max response, negative = inhibition, hits mostly inhibitors; hit rate 0.93% among 400,000; active = well fitted inhibition curve with a large enough effect; inconclusive = small, poorly fitted or top-dose-only effect, or another doubt; inactive = no such curve, though single readings can be large or run the other way; also: series mostly up to about 120 µM
Target sequence (P11473 whole entry, looked up): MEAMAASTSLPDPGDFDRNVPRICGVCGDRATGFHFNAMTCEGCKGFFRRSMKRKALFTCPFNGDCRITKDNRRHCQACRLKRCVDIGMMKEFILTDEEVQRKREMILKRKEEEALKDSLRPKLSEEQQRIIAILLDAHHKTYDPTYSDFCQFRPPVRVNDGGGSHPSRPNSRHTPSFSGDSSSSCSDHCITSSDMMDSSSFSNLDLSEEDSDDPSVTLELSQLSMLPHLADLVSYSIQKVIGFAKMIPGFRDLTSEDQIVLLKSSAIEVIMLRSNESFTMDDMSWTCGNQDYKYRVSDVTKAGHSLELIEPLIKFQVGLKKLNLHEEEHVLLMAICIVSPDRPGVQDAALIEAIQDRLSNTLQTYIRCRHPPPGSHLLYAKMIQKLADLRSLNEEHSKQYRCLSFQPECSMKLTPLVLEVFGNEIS
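After 23 nl compound addition and a short centrifugation, plates sat for 2 hours at ambient temperature; polarization of fluorescence then indicated loss of VDR binding to peptide SRC2-3.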
* marks the source's active call; other numbers are inactive results; ? = inconclusive; & = joins results of further samples. % is scaled to controls: 0 for no effect and ±100 for the full control effect; potency is read from the fitted curve at half-maximal effect.

A first look, six compounds:
no.	structure	VDR inh
1	CCCCOc1ccc(CNC(=O)c2cnc3sc(N4CCCC4)nn3c2=O)cc1	2%
2	COc1ccc(CCN2CC(C(=O)OC(C)C(=O)Nc3ccc(NC(C)=O)cc3)CC2=O)cc1OC (stereo not given)	-22%
3	CCC(CCC(=O)NNC(=O)Cc1ccc([N+](=O)[O-])cc1)C(=O)O (stereo not given)	-1%
4	Cc1cccc(NC(=O)CCNS(=O)(=O)c2ccc3c(c2)CCN3C(=O)C2CC2)c1	14%
5	CCn1cc2nc(SCc3ccccc3F)n(Cc3ccc(C)cc3)c(=O)c2n1	-7%
6	Cc1cc(OCCN2CCCCCC2)ccc1[N+](=O)[O-]	2%

Results, repeating the preview:
no.	structure	VDR inh
1	CCCCOc1ccc(CNC(=O)c2cnc3sc(N4CCCC4)nn3c2=O)cc1	2%
2	COc1ccc(CCN2CC(C(=O)OC(C)C(=O)Nc3ccc(NC(C)=O)cc3)CC2=O)cc1OC (stereo not given)	-22%
3	CCC(CCC(=O)NNC(=O)Cc1ccc([N+](=O)[O-])cc1)C(=O)O (stereo not given)	-1%
4	Cc1cccc(NC(=O)CCNS(=O)(=O)c2ccc3c(c2)CCN3C(=O)C2CC2)c1	14%
5	CCn1cc2nc(SCc3ccccc3F)n(Cc3ccc(C)cc3)c(=O)c2n1	-7%
6	Cc1cc(OCCN2CCCCCC2)ccc1[N+](=O)[O-]	2%
7	CSC(=NC#N)N1CCN(c2ccccc2)CC1	-6%
8	CCCOc1ccc(-c2nonc2NC(=O)COc2ccc(C)cc2)cc1OCCC	14%
9	COc1ccc(C(C)NC(=O)C2C(=O)NC3(C)CC2c2ccccc2O3)cc1 (stereo not given)	5%
10	O=C(COc1ccc(S(=O)(=O)N2CCOCC2)cc1)Nc1ccccc1F	-14%
11	CCS(=O)(=O)N1CCc2cc(C(=O)Nc3cc(OC)c(Cl)cc3OC)ccc21	4%
12	CN(C)c1cccc2c1c(NC(=O)c1ccc(F)cc1)nn2C	-9%
13	CSCCC(NC(=O)COc1ccccc1)C(=O)O (stereo not given)	3%
14	Cc1ccc(S(=O)(=O)c2cn(C)c3cc(N4CCN(C)CC4)c(F)cc3c2=O)c(C)c1	4%
15	COc1ccc(C2C3=C(OC(C)=O)c4ccccc4C3=Nc3c2c(=O)n(C)c(=O)n3C)cc1 (stereo not given)	3%
16	CC1CC(C)CN(S(=O)(=O)c2ccc(NC(=O)C3COc4ccccc4O3)cc2)C1 (stereo not given)	12%
17	Nc1ccccc1C(=O)N1O[C@@H]2C=C[C@H]1CC2	-3%
18	CP(=O)(COC(=O)c1ccccc1)COC(=O)c1ccccc1	-6%
19	Cc1ccc(S(=O)(=O)N2CCC(Oc3ccc(-n4cnnn4)cc3)CC2)cc1	-9%&3%
20	CCOC(=O)c1ccccc1NC(=O)CN(c1ccccc1OC)S(=O)(=O)c1ccc(C)cc1	9%
21	COc1ccccc1/C=C/CN1CC(C)OC(C)C1 (stereo not given)	10%
22	Cc1cc(C)n(Cc2ccc(C(=O)O)cc2)n1	0%
23	Cc1cc2cc(CCNS(C)(=O)=O)c(=O)[nH]c2cc1C	-7%
24	O=C(CSc1nc2ccccc2nc1Cc1ccc(Cl)cc1)N1CCN(c2ccccc2F)CC1	15%
25	Cc1cc(Cl)ccc1NC(=O)C1CCCN(c2nnc(C)c3c(C)n(-c4ccccc4)nc23)C1 (stereo not given)	-5%

no.	structure	VDR inh
26	Cc1nn(C)c(C)c1NC(=O)CSc1nnc(C)n1-c1ccccc1	-5%
27	COCCNc1nc(N)c([N+](=O)[O-])c(NCCO)n1	1%
28	CCOc1ccccc1C(=O)N(CN1CCCC1=O)c1ccc(C)c(Cl)c1	-14%
29	CCOC(=O)N1CCN(C(=O)Cn2ccc3c(OC)cccc3c2=O)CC1	-6%
30	Cn1c(-c2c(N)n(CCCc3ccccc3)c3nc4ccccc4nc23)nc2ccccc21	-11%
31	Cc1cc(N/C=C2\CCCCC2=O)no1	0%
32	CCCC(=O)n1nc(-c2cccnc2)nc1N	13%
33	Nc1cc(C(=O)OCC(=O)N2CCC(Cc3ccccc3)CC2)ccc1Cl	-8%
34	COC(=O)c1[nH]c2ccccc2c1NC(=O)c1ccccc1[N+](=O)[O-]	-2%
35	Cc1ccc(NC(=O)CCCn2nc(C)c3sc4ccccc4c3c2=O)c(Cl)c1	4%
36	CCOc1ccc(NC(=O)c2c3c(nc4ccccc24)CCC3)cc1	17%
37	Cc1ccc(N2CCN(C(=O)c3cc(COc4c(C)cccc4C)on3)CC2)c(C)c1	-7%
38	O=C(Nc1ccc(F)cc1F)N1CCCN(c2ccc([N+](=O)[O-])cn2)CC1	-10%
39	CCOC(=O)N1CCN(C(=O)c2ccccc2NC(=O)COc2ccccc2C)CC1	-16%
40	Cc1cc(C)cc(N(CC(=O)N2CCc3ccccc32)S(=O)(=O)c2c(C)noc2C)c1	-10%
41	CCCNC(=O)C1CCN(S(=O)(=O)c2ccc3nc4c(c(C(=O)O)c3c2)CCCCC4)CC1	-5%
42	CC(=O)C1C(c2ccc(Cl)cc2)NC(=O)NC1(O)C(F)(F)F (stereo not given)	4%
43	O=C(O)C1CC2C3CC(C(=O)O)C(C3)C2C1 (stereo not given)	-3%
44	COc1ccc(Cc2nnc(NC(=O)c3ccc(Cl)c([N+](=O)[O-])c3)s2)cc1	12%
45	COC(=O)c1cccc(S(=O)(=O)N(Cc2ccco2)Cc2cc3ccc(OC)cc3[nH]c2=O)c1	14%
46	CCc1cc2c(NCC(=O)O)ncnc2s1	0%
47	CCOC(=O)CSc1nnc(-c2ccc(S(=O)(=O)NCc3cccs3)cc2)o1	-7%
48	CCOC(=O)c1c(C)[nH]c(C)c1S(=O)(=O)N(C)CC(=O)Nc1cc(Cl)ccc1C	12%
49	O=C(NCc1ccco1)C(=S)N1CCCCC1	-11%
50	c1ccc2nc(-c3nccs3)ccc2c1	-12%

no.	structure	VDR inh
51	O=C(CCNC(=O)c1ccccc1Cl)Nc1nc(-c2ccc(F)cc2)cs1	-9%
52	O=C(O)CCCNc1ccc(S(=O)(=O)Nc2ccccc2C(=O)O)cc1C(=O)O	0%
53	O=C(NCc1ccccc1)c1cccc(NC(=O)C2CCC2)c1	4%
54	Cc1ccc(-c2nn(CC(=O)Nc3cccnc3)c(=O)c3ccccc23)cc1	-1%
55	COc1ccc2[nH]cc(CCNC(=O)C3CCCCC3)c2c1	18%
56	COc1ccc(C(=O)N2CCN(Cc3cn[nH]c3-c3ccc(OC)cc3F)CC2)cc1	-2%
57	CCCCN(C)CCNC(=O)c1nn(-c2ccc(OC)c(Cl)c2)c(=O)c2c1c1ccccc1n2C	-5%
58	Cc1ccc2nc(N3CCN(Cc4nnnn4Cc4ccccc4)CC3)c(C#N)cc2c1	-9%
59	C=CCOC(=O)C1=C[C@@H](c2ccc(Br)cc2)[C@H](CCCO)[C@@H](OCC)O1	-2%
60	CC(=O)c1ccc(NC(=O)CSc2nnc3c(n2)[nH]c2ccccc23)cc1	-8%
61	CCOc1cc(Cl)c(S(=O)(=O)NCc2cccnc2)cc1Cl	-7%
62	CN(CC(=O)Nc1ccc(S(=O)(=O)N2CCCC2)cc1)Cc1cccc(Cl)c1Cl	-6%
63	CC1CCN(C(=O)CCNS(=O)(=O)c2ccc(Br)cc2)CC1	?
64	CC[C@H](CO)Nc1nc(NCc2ccccc2)c2ncn(C(C)C)c2n1	-4%&-21%
65	O=C1CC(c2ccccc2C(F)(F)F)c2c(c3ccccc3[nH]c2=O)O1 (stereo not given)	-20%
66	CCc1ccccc1NC(=O)CNC(=O)CNC(=O)C1CCCCC1	-11%
67	Cc1cccc(N(CC(O)CN(C)C)S(=O)(=O)c2ccccc2)c1 (stereo not given)	-17%
68	CN1C(C(=O)NCc2cccc(C(F)(F)F)c2)CC2Cn3c(nc4ccccc43)C21 (stereo not given)	-11%
69	CCOC(=O)c1c(NC(=O)c2cc3nc(-c4ccc(Br)cc4)cc(C(F)(F)F)n3n2)sc(C(C)=O)c1C	3%
70	Cc1[nH]c(=O)[nH]c(=O)c1NC(=O)c1cccs1	8%
71	Cn1c(=O)n(C)c2cc(S(=O)(=O)O)ccc21	22%
72	CCN(Cc1ccccc1)S(=O)(=O)c1cc2[nH]c(=O)c(=O)[nH]c2cc1C	6%
73	COCCNC(=O)c1ccc2c(=O)n(CCOC)c(=O)[nH]c2c1	-20%
74	COc1ccc(C(=O)NCc2c(C)oc(C)c2C(=O)O)cc1	-1%
75	O=C(O)C1CC(=O)N(C2CCCCC2)C1c1ccccc1 (stereo not given)	0%

4 records drawn at random from those above:
no.	structure	VDR inh
54	Cc1ccc(-c2nn(CC(=O)Nc3cccnc3)c(=O)c3ccccc23)cc1	-1%
58	Cc1ccc2nc(N3CCN(Cc4nnnn4Cc4ccccc4)CC3)c(C#N)cc2c1	-9%
62	CN(CC(=O)Nc1ccc(S(=O)(=O)N2CCCC2)cc1)Cc1cccc(Cl)c1Cl	-6%
60	CC(=O)c1ccc(NC(=O)CSc2nnc3c(n2)[nH]c2ccccc23)cc1	-8%

Continuation:
no.	structure	VDR inh
76	COC(=O)c1cc(NC(=O)c2oc(=O)c3ccccc3c2-c2ccccc2)cc(C(=O)OC)c1	-2%
77	Cc1cc2n(n1)C(c1ccc3c(c1)OCO3)Nc1ccccc1-2 (stereo not given)	16%
78	CCOc1ccc2[nH]c(=O)c(CN(CC3CCCN3CC)C(=O)NCc3ccccc3)cc2c1 (stereo not given)	-13%
79	Cc1nc(SCC(=O)c2ccccc2)c(C#N)c(-c2ccco2)c1C(=O)NCc1ccco1	?
80	Cc1ccc(NC(=O)COC(=O)CNC(=O)c2ccc(Cl)cc2Cl)cc1S(=O)(=O)N1CCOCC1	-2%
81	CCOC(=O)c1c(-c2ccccc2)csc1NC(=O)CSc1ccccc1	-13%
82	O=C(O)C(Cc1ccccc1)N=Cc1c(O)c2ccccc2oc1=O (stereo not given)	13%
83	CSc1nc(Oc2ccc(=O)n(C)n2)nc(N(C)C)n1	2%
84	O=C(CCc1nc2ccccc2s1)OCc1ccccc1F	-14%
85	CCN(CC)S(=O)(=O)c1ccc(NN=c2c(=O)c3ccccc3c2=O)cc1	?
86	OCl	0%
87	CNC(=S)N1N=C(c2ccc(C)cc2)CC1c1ccc(OC)c(OC)c1 (stereo not given)	6%
88	CCOC(=O)CNC(=O)CN1C(=O)CCSc2ccccc21	-6%
89	CC(=O)Oc1ccc(-c2cccc(C(=O)OCC(=O)Nc3ccccc3Oc3ccccc3)c2)cc1	10%
90	CCC(CO)Oc1cc(NCc2cccc(F)c2)c2ncn(C(C)C)c2c1 (stereo not given)	-1%
91	COc1ccccc1N1CCN(C(=O)c2cc(-c3ccccc3O)on2)CC1	-6%&-1%
92	Cc1c(C(=O)N2CCC(n3nccc3NC(=O)C3CC3)CC2)[nH]c2ccc(Cl)cc12	-16%
93	O=C(Nc1sc2c(c1C(=O)NCC1CCCO1)CCC2)c1cc(=O)c2cc(Cl)ccc2o1 (stereo not given)	6%
94	O=C(NCc1ccc(Cl)cc1)C1CC(O)CN1S(=O)(=O)c1ccc(Cl)cc1 (stereo not given)	8%
95	CC(OC(=O)c1ccc([N+](=O)[O-])cc1)C(=O)NCC1CCCCC1 (stereo not given)	-5%
96	COc1ccc2oc(=O)c(-c3nnc(NCc4ccco4)s3)cc2c1	-24%
97	CNC(C)C#Cc1c(-c2cc(OC)c(OC)c(OC)c2)noc1C (stereo not given)	-2%
98	Cc1ccccc1OCc1nc2c3cnn(C)c3ncn2n1	25%
99	C=C1CCC(N(O)c2cc(C)on2)C(=C)CCC2C1CC2(C)C (stereo not given)	-26%
100	O=C(CSc1nc(-c2ccco2)cc(C(F)(F)F)n1)N1CCSCC1	17%

Not all compounds are listed; count on the stated rates, not on these rows.
